# Measles inh = inhibitors of measles virus growth in infected cells; infected Vero cells, GFP fluorescence, 64 h; stronger effect = lower value; 33,000 tested, 0.1% active; z-score (concentration not given with the values);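 active = z-score under -3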;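 note: score is relative to mean and SD of the compound wells of a plate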
# Starred values were filed as active, the others as inactive. These rows are one share of the data; count on the stated rates, not on these rows.
SMILES,Measles inh
CN(CCC#N)C(=O)c1cc2n(n1)C(C(F)(F)F)CC(c1ccc(Cl)cc1)N2 (configuration not stated),0.44
COc1ccc(C2CC(C(F)(F)F)n3nc(C(=O)N4CCCCCC4)c(Cl)c3N2)cc1OC (configuration not stated),-2.7
FC(F)(F)c1cc(-c2ccco2)nc(N2CCCCC2)n1,-1.3
CCCOc1ccc2oc(=O)c3c(c2c1)CCCN3C(=O)CN1CCOCC1,1
O=C(CN1C(=O)C2C3CCC(C3)C2C1=O)N1CCN(Cc2ccccc2)CC1 (configuration not stated),0.22
O=C(O)CN1C(=O)c2cc([N+](=O)[O-])cc3cc([N+](=O)[O-])cc(c23)C1=O,0.31
CCOC(=O)c1ccc(N=c2oc3c(C)ncc(CO)c3cc2C(N)=O)cc1,-0.13
CCn1cc(SCC(=O)Nc2cc(C)ccc2C)c2ccccc21,-1.9
CCC(C)N=Cc1c(NCCO)nc2c(C)cccn2c1=O (configuration not stated),-0.63
CCOc1ccccc1C(=O)Nc1ccc(CC#N)cc1,-1.5
O=C(Nc1ccc(Cl)cc1)c1cc(S(=O)(=O)NC2CCCC2)ccc1F,-1.8
Cc1sc2c3ccccc3ccc2[n+]1CCC(=O)O,-0.05
COc1ccc(C(c2ccc(OC)c(C)c2)C(Cl)(Cl)Cl)cc1C,-0.11
CC(C)CC(=O)N1CCN(Cc2cccc(Oc3ccccc3)c2)CC1,-0.45
CCCn1c(C(C)NC(=O)C(C)(C)C)nc2ccccc21 (configuration not stated),-0.58
CC(O)CNc1nc2c(c(=O)n(C)c(=O)n2C)n1Cc1cccc(F)c1 (configuration not stated),1.1
CC1Cc2nc(SCC(=O)NCc3ccco3)n(C)c(=O)c2S1 (configuration not stated),-0.33
O=C(c1cccc([N+](=O)[O-])c1)N1CCN(CC=Cc2ccccc2)CC1,-0.34
CCN1CCN(C(=O)c2ccc(CNS(=O)(=O)c3ccc(Br)cc3)cc2)CC1,0.17
CCN(CC)C(=O)c1csc(-c2ccccc2)c1-c1ccccc1,-1.2
CC(O)CNc1ncnc2nc[nH]c12 (configuration not stated),1.3
Nc1cc2c(cc1C(=O)c1ccc(Br)cc1)OCCO2,-1.6
COCCN1C(=O)c2ccccc2C(C(=O)Nc2ccccn2)C1c1cn(C)c2ccccc12 (configuration not stated),-1.5
COc1ccc(C2C3=C(CC(C)(C)CC3=O)Nc3ncnn32)c(OC)c1OC (configuration not stated),0.26
Nc1ccccc1Nc1c([N+](=O)[O-])c(=O)oc2ccccc12,-0.46
CC1=C(C(=O)OCCc2ccccc2)C(c2cc3c(cc2Br)OCO3)NC(=O)N1C (configuration not stated),-1.4
Cc1[nH]c2ccccc2c1C(c1cccs1)N1CCN(C)CC1 (configuration not stated),-0.26
COc1cc(OC)c(C=Nc2ccccc2)cc1Br,0.11
CC(C)C(C)(O)C#CCN1CCOCC1 (configuration not stated),0.74
O=C(Nc1ccccc1Cl)c1ccc(F)c(S(=O)(=O)N2CCc3ccccc3C2)c1,-0.28
COc1ccc(NC(=O)CN2CCN(S(=O)(=O)c3cc(Cl)ccc3OC)CC2)c(OC)c1,0.75
Cc1ccc2cccc(Oc3ncnc(N)c3[N+](=O)[O-])c2n1,-1.1
CCOC(=O)c1ccc(N2C(=O)c3ccc(C(=O)OCC(=O)c4ccccc4)cc3C2=O)cc1,-0.37
Cc1nc2c(C(=O)NC(C)CCc3ccccc3)cnn2c(C)c1Cc1ccccc1 (configuration not stated),0.54
Cc1ccc(C(=O)N2CCC(C)CC2)cc1,2.2
CCCCN(C)C(=O)c1sc2ncnc(N3CCN(c4ccccc4F)CC3)c2c1C,0.05
Cc1c(NC(=O)Nc2ccccc2)c(=O)n(-c2ccccc2)n1C,-1.1
O=C1C2C3C=CC(C3)C2C(=O)N1Cc1ccoc1 (configuration not stated),2
CC1CCCC2(C1)NC(=S)N(c1ccccc1)N2 (configuration not stated),-0.08
Cc1ccc([N+](=O)[O-])cc1NC(=O)C12CC3CC(CC(C3)C1)C2,-0.64
CCn1c(=O)c(C2=NS(=O)(=O)c3ccccc3N2)c(O)c2ccccc21,-0.98
CC1CCCC(NC(=O)c2cc(=O)[nH]c3ccc(S(=O)(=O)N4CCCCCC4)cc23)C1C (configuration not stated),-0.82
O=c1oc2c(-c3cc(C(F)(F)F)ccc3Cl)cc(O)cc2s1,0.37
COc1ccc(OCC(=O)Nc2ncc(Cc3ccc(F)cc3)s2)cc1,-0.48
CCC(C)C(NS(=O)(=O)c1ccccc1)C(=O)O (configuration not stated),-0.19
COC(=O)CC1Oc2ccccc2NC1=O (configuration not stated),0.53
CCN1CCN(C(=O)c2sc3ncnc(N4CCc5ccccc5C4)c3c2C)CC1,-1.8
CC(C)OC(=O)CN1CCCN(S(=O)(=O)c2ccc(F)cc2)CC1,0.35
CCOC(=O)c1cnc2cc(C)nn2c1-c1ccccc1,-0.79
COc1ccc2nc(N=C(NC(=O)c3ccccc3)NC(=O)c3ccccc3)nc(C)c2c1,-0.53
CC1(C)CC(=O)C2=C(C1)Nc1ccccc1N(C(=O)Cc1ccc(Cl)cc1)C2c1cccs1 (configuration not stated),0.32
C=CCOc1ccc(C2/C(=C(\O)c3ccc(OC)cc3)C(=O)C(=O)N2c2nnc(C)s2)cc1 (configuration not stated),2.1
Cc1ccc(-c2nc3ncccn3c2Nc2ccc(F)cc2)o1,0.73
COc1ccc(CNC(=O)c2ccc3c(=O)n(-c4cc(C(F)(F)F)ccc4Cl)c(=S)[nH]c3c2)cc1,-0.13
Fc1ccccc1C1C=C(c2ccc(I)cc2)Nc2nnnn21 (configuration not stated),0.42
NS(=O)(=O)c1ccc(NC2=NS(=O)(=O)c3ccccc32)cc1,1.4
COc1ccc(S(=O)(=O)NCCc2ccccc2)cc1,-0.08
CCCN1CCN(C(=O)c2sc3ncnc(N(CC)CC)c3c2C)CC1,0.67
Cc1ccc(C(C)(C)C)c(OCC(=O)Nc2ccc(C(=O)O)cc2)c1,1.1
O=C(O)c1cc(NC(=O)c2ccc3c(c2)C(=O)N(C2CCCCC2)C3=O)cc(C(=O)O)c1,0.99

# Some of these compounds in order of heavy-atom count, largest number first.
SMILES,Measles inh
COc1ccc(CNC(=O)c2ccc3c(=O)n(-c4cc(C(F)(F)F)ccc4Cl)c(=S)[nH]c3c2)cc1,-0.13
COc1ccc2nc(N=C(NC(=O)c3ccccc3)NC(=O)c3ccccc3)nc(C)c2c1,-0.53
CC1CCCC(NC(=O)c2cc(=O)[nH]c3ccc(S(=O)(=O)N4CCCCCC4)cc23)C1C (configuration not stated),-0.82
CCN1CCN(C(=O)c2sc3ncnc(N4CCc5ccccc5C4)c3c2C)CC1,-1.8
CCn1c(=O)c(C2=NS(=O)(=O)c3ccccc3N2)c(O)c2ccccc21,-0.98
Cc1ccc(C(C)(C)C)c(OCC(=O)Nc2ccc(C(=O)O)cc2)c1,1.1
CC(C)OC(=O)CN1CCCN(S(=O)(=O)c2ccc(F)cc2)CC1,0.35
Cc1ccc(-c2nc3ncccn3c2Nc2ccc(F)cc2)o1,0.73
NS(=O)(=O)c1ccc(NC2=NS(=O)(=O)c3ccccc32)cc1,1.4
CCOC(=O)c1cnc2cc(C)nn2c1-c1ccccc1,-0.79
COc1ccc(S(=O)(=O)NCCc2ccccc2)cc1,-0.08
CCC(C)C(NS(=O)(=O)c1ccccc1)C(=O)O (configuration not stated),-0.19
COC(=O)CC1Oc2ccccc2NC1=O (configuration not stated),0.53

# Continuation.
SMILES,Measles inh
CC1(C)Cc2nc3sc4c(N(CCO)CCO)ncnc4c3cc2CO1,0.8
COc1ccc(N=Cc2cc(Cl)ccc2O)cc1Cl,-0.48
CSc1nc(N)nn1-c1ccccc1,0.98
Cc1ccc(C(=O)/C=C\Nc2ccc(C(=O)O)cc2)cc1,0.85
COc1ccc(Cl)cc1NC(=O)c1ccccc1Br,-1.1
CS(=O)(=O)N1CCC(C(=O)Nc2cccc(Cl)c2)CC1,0
O=C(N1CCCCC1)C12CC3CC(C1)CC(c1ccc([N+](=O)[O-])cc1)(C3)C2,-1.7
CC(=O)N1CCc2cc(S(=O)(=O)CCC(=O)Nc3c(C)n(C)n(-c4ccccc4)c3=O)ccc21,1.4
O=S(=O)(c1ccc(-c2csc(Nc3ccc(Cl)cc3)n2)cc1)N1CCCC1,-1.5
O=S(=O)(Nc1ccc(Br)c2cccnc12)c1cccc2cccnc12,-0.49
CC(C)CC(=O)N1CCN(C2CCN(Cc3ccccc3)CC2)CC1,0.43
CCOC(=O)C(=O)C(C#N)c1ccccc1 (configuration not stated),-0.54
COc1ccc(NC(=O)c2sc(=S)n3c2[nH]c(=O)c2sccc23)cc1OC,0.12
CCOC(=O)c1c(-c2ccccc2)oc2ccc(NS(=O)(=O)c3cccc([N+](=O)[O-])c3)cc12,-0.09
Cc1ccc(SCc2cc(=O)[nH]c(Nc3nc4ccccc4o3)n2)cc1,1.7
O=C(CN1CCN(Cc2ccccc2)C1=O)NCc1ccccc1Cl,-1.6
O=C(CSc1nnc(-c2ccco2)c(-c2ccco2)n1)Nc1cccc(Br)c1,-0.1
O=S(=O)(c1ccsc1)c1cccs1,0.83
Cc1cc(C)c(O)c(N=Cc2ccccc2O)c1,-1.3
COc1ccc(OC)c(NS(=O)(=O)c2ccc3nc(-c4ccccc4)[nH]c3c2)c1,0.04
COc1ccc(OC)c(CNC(=O)C2c3ccccc3C(=O)N3CCc4cc(OC)c(OC)cc4C23)c1 (configuration not stated),-0.27
CC(=O)Nc1ccc2c(c1)C(=O)N(c1ccccc1C)C2=O,1.4
COc1cccc(-c2nn(C)c3sc(C(=O)Nc4cccc(C(F)(F)F)c4)cc23)c1,-0.43
CCn1c(-c2ccccc2)csc1=Nc1ccc(C)c(C)c1,1.4
O=C(Nc1ccc(S(=O)(=O)N2CCCCC2c2cccnc2)cc1)c1ccc2ccccc2c1 (configuration not stated),-0.25
Cc1sc2c(c1C)C(=O)NC1(N2)C(=O)N(Cc2ccccc2F)c2ccccc21 (configuration not stated),3.7
CCN(CC)CCNC(=O)Cn1ccc2ccccc2c1=O,-0.45
CC(=O)c1sc2nc(C(C)(C)C)cc(C(F)(F)F)c2c1N,-0.07
COc1ccc2cc3cc(C(=O)NCc4cccs4)oc3nc2c1,-0.25
CCCCc1cc(=O)oc2c(C)c3oc(C)c(C)c3cc12,-0.22
CC(=O)Oc1ccc(C(=O)NCC(C)C)cc1,-0.45
COc1ccc(C(=O)Nc2ccc(-c3nc4cc(C)cc(C)c4o3)cc2)cc1OC,-0.31
CCC(C)NC(=O)c1ccc2c(c1)N(Cc1ccccc1Cl)C(=O)c1ccccc1S2 (configuration not stated),-2.6
O=c1cc(-c2ccccc2)c2ccc(OCc3ccccc3F)cc2o1,-0.56
COC(=O)C(C)NC(=O)c1ccc(C(C)(C)C)cc1 (configuration not stated),-0.04
COc1ccc(O)c(C=Nc2cccc(Cl)c2)c1,1
CC(=O)Nc1cccc(N=Cc2cc([N+](=O)[O-])cc(C)c2O)c1,-0.25
CCOC(=O)CSCc1nc2c(c(=O)[nH]1)C1(CCCC1)Cc1ccccc1-2,0.31
COc1cc(C(=O)N2CCCc3ccccc32)cc(OC)c1OC,-0.23
Cc1ccc(N=C2NC(=O)CC(C(=O)Nc3cccc(C(F)(F)F)c3)S2)cc1 (configuration not stated),0.57
O=C(Nc1ccc(Nc2ccccc2)cc1)c1scc2c1CCCC2,-0.27
CCOc1ccccc1CNC(=O)CNC(=O)c1cccs1,-1.7
Cc1cccc(N(C)S(=O)(=O)c2cccc3cccnc23)c1,0.86
CCOC(=O)c1sc(NC(=O)c2sc3nc[nH]c(=O)c3c2C)nc1C,-0.43
CCOC(=O)c1ccc(NCc2ccccc2OC)c([N+](=O)[O-])c1,0.01
Cc1ccc(C2C3=C(CC(C)(C)CC3=O)Nc3nc(SCc4cccc(C)c4)[nH]c(=O)c32)cc1 (configuration not stated),-0.76
COc1ccc(CCNC(=O)c2cc3cc4ccc(C)cc4nc3s2)cc1OC,-0.88
Nc1nc2c([N+](=O)[O-])cccc2s1,-0.39
CC1=NN(C(=O)c2csc3c2CCCC3)C(O)(C(F)(F)F)C1 (configuration not stated),1.8
COCCOC(=O)c1c(C)oc2c1cc(NS(=O)(=O)c1ccc(Cl)c(C)c1)c1ccccc12,-0.42
CCCCC1=NN(C(=O)c2ccc(OC)cc2)C(O)(C(F)(F)F)C1 (configuration not stated),0.16
O=C(Cn1c(=O)n(-c2ccc(F)cc2)c(=O)c2sccc21)Nc1ccc(F)cc1,-0.45
Cc1nc(NCCCN2CCOCC2)c2c3c(sc2n1)CCCC3,-0.75
Cc1ccc(CNC(=O)c2cc(S(=O)(=O)N3CCC(C)CC3)ccc2F)cc1,-0.46
COc1cc2c(=O)n(CCc3ccccc3)c(=O)n(CC(=O)c3ccccc3)c2cc1OC,-0.51
O=C(CC1SC(=O)NC1=O)Nc1ccccc1O (configuration not stated),0.28
CCCCn1c(=S)[nH]c2cc3ccccc3cc2c1=O,0.21
CC(C)(C)C1=NN(c2ccc([N+](=O)[O-])cc2)C(c2ccccc2)C1 (configuration not stated),0.63
COc1ccccc1CNC(=O)CC1N=C2c3ccccc3N=C(SCc3ccc(F)cc3)N2C1=O (configuration not stated),0.17
Cc1cc(C)c(NC(=O)c2cc(S(=O)(=O)NCCc3ccc(Cl)cc3)ccc2F)c(C)c1,-0.14
# Later entries:
SMILES,Measles inh
N#Cc1c(N2CCN(C(=O)c3ccco3)CC2)nc(-c2ccccc2)c2c1CCCC2,-0.73
COc1ccc(C2=CC(c3ccc(OC)cc3)NC(=S)N2)cc1 (configuration not stated),-0.38
CCn1c2ccccc2c2cc(NC(=O)c3ccccc3C)ccc21,-0.02
O=C(NC1CCCc2ccccc21)c1cc2c(=O)[nH]c3ccccc3c2s1 (configuration not stated),-1
Cc1cc(C)n2c(SCCO)nnc2n1,-0.14
Cc1noc(C)c1S(=O)(=O)Nc1ccc(C(=O)Nc2ccc(C(C)C)cc2)cc1,-3.7*
O=C(Nc1cnn(Cc2ccc(F)cc2)c1)c1noc2c1CCCC2,-1
CC1(C)CC(=O)c2cc(C(=O)N3CCN(c4ccc(Cl)cc4)CC3)c(=O)n(-c3ccc(Cl)cc3)c2C1,0.17
